Source: PubChem (several laboratories)
MLL AF4-AF9 inh: inhibitors of human MLL-AF4/AF9 interaction; AlphaScreen, biotin-AF4 peptide binding to FLAG-AF9; inhibition, % at 10 µM; 350,000 tested, 0.47% active;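 active = every replicate reaching a set inhibition limit, whatever the replicate mean, cut at about 25% in these data; inconclusive = mean inhibition reaches that limit but some replicates miss it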;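 also: 0% = plate neutral control median and 100% = total signal loss; the record names both 10 and 1 µM as test concentration; the first replicate is given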
ALR H2O2 inh: blocks human ALR sulfhydryl oxidase activity. inhibition, % (no concentration beside the values). 290,000 tested, 3.8% active. purified ALR, DTT oxidation, H2O2 HRP-luminol luminescence. AID 485317;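 active = mean and each replicate at 75% or more; inconclusive = only one of the two met; inactive = neither met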;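 also: stock transfer was 7.5 nL into about 7.5 µL; 0% = neutral wells and 100% = wells with inactivated enzyme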
Target sequence (P55789 whole entry, looked up): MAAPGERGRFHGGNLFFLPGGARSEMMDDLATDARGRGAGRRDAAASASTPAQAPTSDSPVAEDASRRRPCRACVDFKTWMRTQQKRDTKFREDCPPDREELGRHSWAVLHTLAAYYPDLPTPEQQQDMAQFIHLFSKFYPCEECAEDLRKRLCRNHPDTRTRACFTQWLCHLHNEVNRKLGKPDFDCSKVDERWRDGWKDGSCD
rRNA inh HTS: selective bacterial rRNA inhibition in E. coli | E. coli WT GFP vs humanized-ribosome RFP mutants, fluorescence, 24 h; hits give low values; DMSO median 0, no signal -100 | GFP signal change (wild-type ribosome), % (test concentration not listed) | 350,000 tested, 1.6% active | AID 720706;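 active = significant combined selectivity score with lowered wild-type GFP, culture density cut under 30%, mutant RFP and density less affected; inactive = any of these conditions unmet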; also: one replicate is shown; some compounds called inactive have numbers as strong as hits
Vif TR-FRET: HIV-1 Vif–A3G interaction blockers – biochemical, TR-FRET, GST-Vif 1-94, biotin-A3G peptide, dose response retest, primary screen (AID 1117319). TR-FRET GST-Vif / biotin-A3G peptide binding; higher % means a stronger effect; test concentration not given here; strong numbers were not always called active. one-dose inhibition, %; IC50 in µM for titrated hits. 260,000 tested, 0.57% active;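 active = above the screen mean plus three standard deviations and confirmed in dose response; inconclusive = results disagree or hit not tested in dose response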;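 also: Vif residues 1-94 fused to GST binding biotinylated APOBEC3G peptide 110-148; 0% = full assay without inhibitor and 100% = GST in place of GST-Vif; retest series ran down from 100 µM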
E coli growth: blocks Escherichia coli growth. OD600, 23 h; hits give low values. OD600 absorbance (test concentration not listed). 330,000 tested, 0.21% active;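 active = OD600 absorbance below the run mean of sample wells minus 3.6 SD, in any replicate, cut at about 0.56 in these data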;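 also: stock transfer was 300 nL into about 60 µL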
FGF22 binding: binders of recombinant human FGF22 by thermal shift | Q9HCT0 | SYPRO orange fluorescence; percent of sucrose octasulfate shift, DMSO zero | calls only at 9.99 µM | 340,000 tested, 1.5% active;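 active = melting point raised past a set limit in the mean and every replicate; inconclusive = no clear call; three in four hits are not shown here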
Target sequence (Q9HCT0 whole entry, looked up): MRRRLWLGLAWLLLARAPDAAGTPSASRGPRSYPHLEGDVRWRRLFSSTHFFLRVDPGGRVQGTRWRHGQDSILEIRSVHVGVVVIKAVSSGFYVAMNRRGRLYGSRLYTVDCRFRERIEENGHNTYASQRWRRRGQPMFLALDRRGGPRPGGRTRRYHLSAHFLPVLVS
HNF4A DNA FP: change in binding of human HNF4 alpha to DNA. 360,000 tested, 0.3% active. HNF4a-FITC DNA binding, fluorescence polarization, 1 h. P41235. activity change, % at 10 µM; in the data active = activity change above about 30%, passing the limit was not always enough;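 also: controls were the assay level and a saturating level of protein; the project sought stronger binding though the title names inhibitors; some compounds called inactive have numbers as strong as hits; positive values seem to mean higher polarization but the record does not say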
Target sequence (P41235 whole entry, looked up): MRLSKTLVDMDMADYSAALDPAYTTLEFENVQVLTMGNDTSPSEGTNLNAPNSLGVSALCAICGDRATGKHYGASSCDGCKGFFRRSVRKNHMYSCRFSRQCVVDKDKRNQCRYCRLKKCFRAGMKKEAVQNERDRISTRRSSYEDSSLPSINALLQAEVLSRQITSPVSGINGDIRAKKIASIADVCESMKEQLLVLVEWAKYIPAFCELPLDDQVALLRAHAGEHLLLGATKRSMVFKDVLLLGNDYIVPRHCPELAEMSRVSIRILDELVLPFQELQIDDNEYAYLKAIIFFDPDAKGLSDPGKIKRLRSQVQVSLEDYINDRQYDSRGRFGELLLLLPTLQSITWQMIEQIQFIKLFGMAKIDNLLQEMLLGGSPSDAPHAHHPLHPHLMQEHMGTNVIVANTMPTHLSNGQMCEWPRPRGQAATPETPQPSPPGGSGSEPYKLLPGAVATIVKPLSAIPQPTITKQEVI
rRNA inh HTS OD600: also measured in rRNA inh HTS; calls as there; OD600 change, %; measured here: OD600 growth;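 optical density of the mix in the first replicate; 0 = DMSO median and -100 = no signal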
rRNA inh HTS RFP: second read-out of rRNA inh HTS, no call of its own (marks repeat the call); RFP signal change, %; measured here: RFP humanized mutant strains;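 first replicate; 0 = DMSO median and -100 = no signal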
The depositor's hits bear a star; i = inactive; ? = inconclusive; . = no result given; & = joins results of further samples. This is a subset; rates above refer to the full screens.

SMILES	MLL AF4-AF9 inh	ALR H2O2 inh	rRNA inh HTS	rRNA inh HTS OD600	rRNA inh HTS RFP	Vif TR-FRET	E coli growth	FGF22 binding	HNF4A DNA FP
COc1ccccc1Oc1ccc(S(=O)(=O)N2CCCCC2)cc1NC(=O)CCNC(C)=O	-2.0	1	2	-7	2.1	.	0.71	i	0.4
Cc1ccccc1OCCn1cc(/C=C(\C#N)C(=O)NCc2ccco2)c2ccccc21	-3.9	15	19	10	-3.7	-5%	0.72	i	1.1
CCOc1ncccc1C(=O)N=C1SCCN1C(=O)c1cccnc1OCC	-7.6	9	-9	-12	-0.7	0%	0.69	i	0.4
O=c1[nH]c2ccccc2nc1CCc1ccccc1	-6.7	-8	5	8	1.6	-12%	0.72	i	4.1
CCN=C1S/C(=C\c2ccc(Sc3ccc(Cl)cc3)o2)C(=O)N1CC	.	9	.	.	.	5%	.	.	6.7
O=C(CSc1nnnn1-c1cccnc1)NCc1cccs1	.	5	.	.	.	-9%	0.67	.	4.3
Cc1ccc(C(=O)c2c3ccc(C(F)(F)F)cc3[n+]([O-])n2CCC(N)=O)cc1	-6.8	28	-11	-9	15	.	0.64	i	-2.1
O=C(CCN1C(=O)c2cccc3cccc(c23)C1=O)N1CCN(Cc2ccc3c(c2)OCO3)CC1	.	-1	.	.	.	-5%	0.68	.	-2.2
CC1=C(C(=O)OC2CCCC2)C(c2ccc(C)o2)C2=C(CC(c3cccs3)CC2=O)N1 (configuration not stated)	.	1	.	.	.	20%	0.64	.	1.4
Cc1c(O)ccc2c(=O)c(Oc3ccccc3)coc12	0.2	-16	-3	-8	-1.4	7%	0.69	i	2.5
O=C(Nc1ccc2c(c1)oc1ccc(S(=O)(=O)N3CCCC3)cc12)C1CC1	.	-1	.	.	.	19%	0.68	.	-2.5
CCN(CC)C(=O)C1=C(C)Nc2nnnn2C1c1cccnc1 (configuration not stated)	.	15	.	.	.	2%	0.78	.	-1.6
O=c1cc(-c2ccccc2)nc(SCc2ccc(Cl)cc2)[nH]1	.	2	.	.	.	21%	0.73	.	-0.8
CCS(=O)(=O)Nc1ccc2c(c1)C(=O)N(C)[C@@H]1CC[C@H](CC(=O)N3CCCCC3)O[C@@H]1CO2	-2.2	.	-1	-4	-3.7	.	.	i	.
CCOC(=O)CSC1=C(C#N)C(c2ccc(C)o2)CC(=O)N1 (configuration not stated)	30*	8	4	-1	0.5	5%	0.7	i	-0.3
CSc1ncc(S(=O)(=O)c2ccccc2)c(=O)[nH]1	-2.9	-2	-12	-18	-2.6	-5%	0.7	i	-1.7
COc1ccccc1CNC(=O)C[C@@H]1CC[C@H]2[C@@H](COC[C@H](O)CN2Cc2ccc3c(c2)OCO3)O1	-0.6	.	-3	-8	1.7	.	.	i	.
CCOc1ncccc1C(=O)Nc1ccc2c(c1)OCCCO2	-8.2	.	-2	-13	-1.2	-7%	0.63	i	2.5
O=C(CCC(=O)N1CCN(c2ccccc2F)CC1)N1CCN(c2ccccc2)CC1	2.2	.	2	-14	2.9	.	0.72	i	2.1
Cc1sc(NC(=S)NC(=O)c2cccs2)nc1-c1ccc(C(C)C)cc1	.	6	.	.	.	1%	0.79	.	0.2
Nc1c(/C=C2/C=CC(=O)C(O)=C2)c(=O)nc2sc(CC(=O)N3CCCC3)nn12	-1.8	99*	8	1	1.8	.	0.69	i	-2.1
CCCN(CCC)CCCOC(=O)c1ccc(Cl)cc1Cl	.	2	.	.	.	-2%	0.7	.	-0.8
CCOc1cc(/C=N/NC(N)=O)cc(Br)c1OCc1ccccc1	6.8	1	-16	-14	-4.7	.	.	i	-0.2
O=C(CCl)Nc1cc2[nH]c(=O)[nH]c2cc1Br	-1.1	43	0	13	-3.5	?	0.67	i	-3.3
Cc1ccc(NC(=O)CSc2nc3ccccc3c(=O)n2CCCC(=O)NCCCN2CCOCC2)cc1C	4.8	-172	10	8	10	5%	0.67	i	-2.2

(continued)
SMILES	MLL AF4-AF9 inh	ALR H2O2 inh	rRNA inh HTS	rRNA inh HTS OD600	rRNA inh HTS RFP	Vif TR-FRET	E coli growth	FGF22 binding	HNF4A DNA FP
CCC(CCC(=O)Nc1ccn(-c2ccccc2)n1)C(=O)O (configuration not stated)	.	-5	.	.	.	29%	0.68	.	-2.8
CCCCCCCCCCn1c2c(c(=N)c3c1CCC3)CCC2	.	-1	.	.	.	-3%	0.22*	.	-2.0
CSCCNC(=O)c1ccc(OC2CCN(CCc3ccccc3)CC2)cc1	2.5	-3	4	11	-3.1	13%	0.68	i	3.6
CN1c2ccc(-c3cccc(C#N)c3)cc2[C@@H]2[C@@H](CCN2S(=O)(=O)c2ccccc2)[C@@H]1CO	-2.7	.	-7	-22	-0.6	.	.	i	.
O=C(O)c1cc([N+](=O)[O-])c(Sc2nc3ccccc3[nH]2)c([N+](=O)[O-])c1	-1.5	85*	10	9	1.5	10%	0.68	i	-3.8
CCOC(=O)c1c(O)cc(C)cc1Nc1ccccc1	-0.4	.	0	-6	-2.8	.	0.68	i	2.1
C[C@H](CO)N1C[C@H](C)[C@H](CN(C)C)Oc2ccc(NC(=O)Cc3ccccc3)cc2C1=O	-2.0	.	4	1	-1.1	.	.	i	.
COc1ccc(OC)c(Nc2nc3ccccc3n3cnnc23)c1	1.6	-8	5	4	2.5	-6%	0.64	i	-0.9
O=C(O)CC1CCS(=O)(=O)C1 (configuration not stated)	.	0	.	.	.	0%	0.69	.	4.3
COC(=O)CSc1nc(NC(C)(C)C)nc(N(C)C)n1	3.8	14	-16	-6	3.0	4%	0.67	i	0.8
C[C@H](CO)N1C[C@H](C)[C@H](CN(C)C)Oc2ncc(-c3cccc(C(=O)N(C)C)c3)cc2C1=O	-5.1	.	2	4	-1.0	.	.	i	.
COc1cc2c(C#N)c(N3CCN(c4ccccc4OC)CC3)nc(N)c2c(N)n1	.	8	.	.	.	6%	0.77	.	6.5
COc1cccc(NC(=O)c2cc(C(=O)Nc3cccc(OC)c3)n(C)n2)c1	.	9	-11	-8	0.3	-8%	0.7	.	-0.2
Cc1cc2cc(CN3C(=O)c4ccccc4C3=O)ccc2n1C	.	1	.	.	.	-66%	0.72	.	-3.3
Cn1nc(C(=O)NCc2ccccn2)c2ccccc2c1=O	.	.	.	.	.	-4%	0.69	.	-2.0
O=C(CCSCCc1ccccn1)Nc1c(F)cc(F)cc1Br	.	-18	.	.	.	.	0.71	.	3.4
O=C1OCCN1C(=O)[C@H]1[C@H](c2ccc([N+](=O)[O-])cc2)C(c2ccc(F)cc2)=NN1c1ccccc1	2.7	.	6	10	0.2	4%	0.75	i	3.8
O=c1cc2c(c(-c3ccccc3)n1Cc1ccccc1)[C@H](CCO)NC2	2.2	.	-2	4	-8.5	-4%	0.72	i	5.3
C=CCNc1nc(Nc2ccc([N+](=O)[O-])cc2)nc(OCC)n1	-0.1	-1	.	.	.	-1%	0.7	i	-1.9
Cn1ccnc1SCC(=O)Nc1cc(F)ccc1F	4.2	-9	3	3	0.8	.	0.69	i	-2.8
CN(C(=O)CN1C(=O)/C(=C/c2ccccc2Cl)SC1=S)C1CCS(=O)(=O)C1 (configuration not stated)	-1.8	17	-7	-3	-4.1	.	0.67	i	-2.6
CCc1cc2c(-c3ccccc3)cc(=O)oc2cc1OC(C)C(=O)NCC1CCC(C(=O)O)CC1 (configuration not stated)	2.4	.	.	.	.	.	0.76	i	0.4
CSc1nc(O)c(Nc2ccccc2)c(=O)[nH]1	-1.0	.	22	15	2.2	-11%	0.68	i	-2.2
O=C(NCC[C@H]1CC[C@@H](NC(=O)Nc2cc(F)ccc2F)[C@H](CO)O1)Nc1ccc(F)cc1	18	.	-7	-7	1.4	.	.	i	.
COC(=O)c1c(-c2ccc(C)cc2)csc1NC(=O)Cc1ccc(OC)c(OC)c1	.	.	.	.	.	30%	0.71	.	6.8

Continuation.
SMILES	MLL AF4-AF9 inh	ALR H2O2 inh	rRNA inh HTS	rRNA inh HTS OD600	rRNA inh HTS RFP	Vif TR-FRET	E coli growth	FGF22 binding	HNF4A DNA FP
COc1ccc(S(=O)(=O)Nc2cccc3c2O[C@H](CN(C)C)[C@@H](C)CN([C@H](C)CO)C3=O)cc1	0.1&-0.3	-3	4&27	9&15	0.0&-0.8	.	.	i	2.9
COc1ccc(S(=O)(=O)N(C)C[C@@H]2Oc3c(NC(=O)C4CCCCC4)cccc3C(=O)N([C@@H](C)CO)C[C@H]2C)cc1	-0.5	.	-6	-14	-1.3	.	.	i	.
O=C(c1ccc2c(c1)OCO2)c1ccc[nH]1	2.5	.	5	6	-2.3	-5%	.	i	-0.6
CCOC(=O)C(=CNc1cscc1S(=O)(=O)C(C)C)C(=O)OCC	.	-5	11	-2	-0.9	-2%	0.69	i	-7.3
CC(C)n1c(CN2CCN(C)CC2)nc2c1c(=O)n(C)c(=O)n2C	.	-2	.	.	.	.	0.7	.	4.0
Cc1ccc(S(=O)(=O)c2c(C)cc(C)nc2N2CCCC2)cc1	0.4	-9	-38	-54	-4.4	17%	0.67	i	-2.0
CN1CCN(c2ccc(CNS(=O)(=O)c3ccsc3)cc2)CC1	0.8	-9	11	-5	-2.6	17%	0.71	i	-0.9
CC(C)c1ccccc1NC(=O)COC(=O)c1c2c(nc3ccccc13)CCN(Cc1ccccc1)C2	2.1	6	-2	-15	2.3	0%	0.7	i	-0.2
COc1ccc(/C=N/NC(=O)CN2CCSCC2)cc1C	.	6	.	.	.	?	.	.	1.8
O=C(Cc1nn[nH]n1)NCc1ccccc1Cl	.	1	.	.	.	-2%	0.8	.	-0.8
COc1ccc(CCNC(=O)COc2nncc3ccccc23)cc1	-3.7	1	.	.	.	25%	0.7	i	0.3
O=C(NCc1ccccc1)c1cc(C2CCCCN2C(=O)c2ccc3c(c2)CCO3)on1 (configuration not stated)	3.5	.	-1	2	7.1	.	.	i	-2.3
Clc1cccc(-c2nc3c4ccccc4ccn3c2Cc2ccccc2)c1	-0.1	.	21	6	35	.	.	i	3.5
c1ccc(-c2ccc3ccccc3n2)cc1	0.0	2	2	4	-1.0	.	0.77	i	4.2
CCC(C)(C(=O)NC1CCCCC1)N(Cc1cccs1)C(=O)c1ccc(=O)[nH]c1 (configuration not stated)	.	-4	.	.	.	7%	0.65	.	-2.2
CCC(=O)N1[C@@H]2c3cccc(=O)n3C[C@@H]2[C@@H](CO)[C@@H]1C(=O)N1CCc2ccccc2C1	-2.6	.	3	10	-1.3	.	.	i	.
COc1ccc(CCNC(=O)c2cccs2)cc1OC	1.2	0	2	1	0.6	13%	0.73	i	2.9
